nsP2pro inh = inhibitors of chikungunya virus nsP2 protease | Q8JUX6 | FRET peptide cleavage, nsP2pro, fluorescence 1 h | Potency, µM (highest dose often 24.9 µM), without a hit: top-dose activity change, negative = inhibition, hits mostly inhibitors | 31,000 compounds, 1.1% hits | AID 1964107; active means well fitted inhibition curve with a large enough effect; inconclusive means small, poorly fitted or top-dose-only effect; inactive means no such curve, though single readings can be large or run the other way; also: nearly all actives have a fitted effect of over 60% in size; a reference inhibitor and vehicle were the controls
Active calls of the source: *; i = inactive; ? = inconclusive; & = joins results of further samples; [ ] = remark or other dose. % is scaled to controls: 0 for no effect and ±100 for the full control effect; potency is read from the fitted curve at half-maximal effect. Not all compounds are listed; the hit share may differ from the screen's.

SMILES	nsP2pro inh
Cc1ccccc1CC(=O)N1CC(F)(F)C[C@H]1c1nnc(C2CC2)o1	i
O=C(Nc1ccc(Cl)c(Cl)c1)Nc1nnc(-c2cccnc2)s1	3.6%
O=C(NCc1nc2ccccc2[nH]1)c1c(F)cccc1F	-5.1%
COc1cc(C(C)=O)ccc1OCCCN1CCC(c2noc3cc(F)ccc23)CC1	0.3%
CC(=O)O[C@@H]1CC2C(C)(C)C(=O)C=C[C@]2(C)C2CC[C@@]3(C)[C@H](c4ccoc4)OC(=O)[C@H]4O[C@]43[C@@]21C (stereo partly drawn)	?
CCOc1ccccc1C(=O)NCC(c1ccc(N(C)C)cc1)N1CCc2ccccc21 (stereo not drawn)	-20.6%
CN(Cc1cc(C2CC2)on1)Cc1nnc(C2CC(N)C2)n1C1CC1 (stereo not drawn)	0.4%
O=[N+]([O-])c1ccc([As](=O)(O)O)cc1	11.0%
Cc1ccc(S(=O)(=O)Nc2cc(F)ccc2C(=O)Nc2nc(-c3ccccc3)cs2)cc1	i
CC1=C(COC2OC(CO)C(O)C(O)C2O)C(C(CO)C(=O)O)CC1 (stereo not drawn)	-6.0%
CCN(Cc1ccncc1)C(=O)c1coc(COc2cccc(C(F)(F)F)c2)n1	1.4%
CCc1ccccc1NC(=O)Cn1c(=O)nc(-c2ccccc2)c2ccccc21	-25.0%
CCOc1ccc(-n2c(=O)c3c(C)c(C)sc3n(CC(=O)N3CCC(C)CC3)c2=O)cc1	-28.3%
COc1ccc(C2C(=O)N(C3CCCCC3)CC(=O)N2Cc2ccccc2Cl)cc1OC (stereo not drawn)	-16.9%
COc1ccc(Nc2nc(Nc3ccc(OC)cc3OC)nc(N3CCOCC3)n2)c(OC)c1	-18.0%
O=C(C1CC1)N1CCC(C(=O)N2CC(Oc3ccc4c(c3)OCO4)C2)CC1	7.94µM*
CCOC(=O)C1(C)C=C(Nc2cccc(C(=O)O)c2)C(=O)N1c1cccc(C(=O)O)c1 (stereo not drawn)	-17.7%
CC(C)(C)C(O)/C=C/c1ccc2c(c1)OCO2 (stereo not drawn)	?
CCOC(=O)N1CCc2c(sc3c2c(=O)n(-c2ccc(F)cc2)c(=O)n3CC(=O)c2ccc(Cl)cc2)C1	-13.1%
Cn1c(=O)c2c(nc(CN3CCN(c4ccccc4F)CC3)n2Cc2ccc(F)cc2)n(C)c1=O	-11.5%
C#C[C@]1(O)CC[C@H]2[C@@H]3CCc4cc(OC5CCCC5)ccc4[C@H]3CC[C@@]21C	-5.2%
C=C1C(OC(C)=O)CCC2(C)CC3(OC)OC(=O)C(C)=C3CC12 (stereo not drawn)	13.6%
FC(F)(F)c1cccc(C2=NOC3(CCCN(CC4CCCCC4)C3)C2)c1 (stereo not drawn)	i
O=C(NCCc1ccc(Cl)cc1)c1ccc(Cn2c(=O)c3cccn3c3cccnc32)cc1	-12.5%
O=C(CCc1nc(-c2cccnn2)no1)NC1CCCCCCC1	3.1%
CCN(C(=O)C1CCC(CNS(=O)(=O)c2cccc3nsnc23)CC1)c1ccc(C)c(C)c1 (stereo not drawn)	-17.7%
COc1ccc(CC(=O)NC2CC(=O)N(c3ccc(C)c(C)c3)C2)cc1OC (stereo not drawn)	-22.6%
CSCCC(C=O)NC(=O)C(CC(C)C)NC(=O)C(CC(C)C)NC(C)=O (stereo not drawn)	-21.7%
O=c1cc(-c2ccccc2)nc2cc(-c3ccc(F)cc3)[nH]n12	-20.6%
Fc1cnc(N2CCCC(OCc3cccnc3)C2)nc1N1CCOCC1 (stereo not drawn)	-1.4%

In a second layout: entries from further up
compound,nsP2pro inh
CC(C)(C)C(O)/C=C/c1ccc2c(c1)OCO2 (stereo not drawn),?
C=C1C(OC(C)=O)CCC2(C)CC3(OC)OC(=O)C(C)=C3CC12 (stereo not drawn),13.6%
O=C(C1CC1)N1CCC(C(=O)N2CC(Oc3ccc4c(c3)OCO4)C2)CC1,7.94µM*
CCN(C(=O)C1CCC(CNS(=O)(=O)c2cccc3nsnc23)CC1)c1ccc(C)c(C)c1 (stereo not drawn),-17.7%
O=C(CCc1nc(-c2cccnn2)no1)NC1CCCCCCC1,3.1%
Cn1c(=O)c2c(nc(CN3CCN(c4ccccc4F)CC3)n2Cc2ccc(F)cc2)n(C)c1=O,-11.5%

The results go on:
SMILES	nsP2pro inh
Cc1cccc(-n2cnc3cc(C(=O)N4CCN(C)CC4)ccc32)c1	i
COc1ccnc(NC(=S)N2CCN(c3ccccc3C(F)(F)F)CC2)c1	-0.9%
CCCn1c(-c2ccc(F)cc2)nc2c(NCCCN3CCOCC3)nc(C)nc21	-1.6%
CN(C)C(=O)COC(=O)Cc1ccc(OC(=O)c2ccc(N=C(N)N)cc2)cc1	7.7%&-11.4%&12.9%
NC1(Cc2ccc(Cl)cc2)CCN(c2ncnc3[nH]ccc23)CC1	57.1%[activator]
CC[N+]1(C/C2=C/CCCCCC2)CCC(NC(=O)C2c3cc(Cl)ccc3Oc3ccc(Cl)cc32)CC1 (stereo not drawn)	24.9%
O=C1Nc2ccccc2CC12CCN2Cc1ccc(OC(F)(F)F)cc1 (stereo not drawn)	1.7%
CCOC(=O)c1noc2nc(C)n(CC(=O)Nc3cc(Cl)ccc3OC)c(=O)c12	-10.8%
CCn1cc(C(=O)N2CCN(c3cc(Cl)ccc3C)CC2)c(=O)c2cc(S(=O)(=O)N3CCCC3)ccc21	-2.3%
CC(=O)Nc1sc2c(c1C(O)c1nc3ccccc3s1)CCN(C(C)C)C2 (stereo not drawn)	1.1%
O=C(CNC(=O)c1ccc(Cl)cc1Cl)OC(C(=O)Nc1cc(C(F)(F)F)ccc1Cl)c1ccccc1 (stereo not drawn)	0.7%
C=CC(=O)Nc1cccc(CN2C(=O)N(c3c(Cl)c(OC)cc(OC)c3Cl)Cc3cnc(NCCCCN(CC)CC)nc32)c1	121.1%[activator]
COCC(=O)N[C@H]1C[C@H]2C(=O)NC[C@@H](CCC(=O)N3CCN(c4ccccc4)CC3)N2C1	3.4%
Cc1cccc(Cn2cc(C(=O)Nc3ccc(S(N)(=O)=O)cc3)ccc2=O)c1	-14.0%
CC(C)(C)c1ccc(Nc2nc(C#N)nc(NC3CCCC3)n2)cc1	i
COCC(=O)N[C@@H]1CN(C2CCOCC2)CC[C@@H]1CO	-1.6%
CCC1CCCCN1CCCNC(=O)CN1C(=O)CSc2ccc(S(=O)(=O)N3CCOCC3)cc21 (stereo not drawn)	-4.4%
O=C(C1CC2(CCNCC2)CN1)N1CCC(c2nc3ccccc3[nH]2)CC1 (stereo not drawn)	i
CCCS(=O)(=O)N1C[C@@H](Oc2ccccc2)C[C@@H]1C(=O)NCCOC	-1.7%
CN1Cc2ncnc(N3CCOCC3)c2CN(c2cccnc2)C1=O	?
CC1=C(C(=O)OC2CCCC2)C(c2ccc(F)cc2F)CC(=O)N1 (stereo not drawn)	-7.0%
O=C(NC1CC1)c1nc(-c2cccnc2)c2cnccn12	-4.5%[39.2 µM]
Nc1c(-c2nc(-c3ccc4c(c3)OCO4)cs2)c2ccccn2c1C(=O)c1ccc(Cl)cc1	-12.2%
Cc1cccc(N(C)C(=O)CCS(=O)(=O)c2ccc3c(c2)oc(=O)n3C)c1	?
COc1cccc(C2=Nn3c(nnc3-c3ccc(OC)cc3OC)SC2)c1	2.0%
Cc1ccccc1Nc1c(-c2ccc(Br)o2)nc2ccc(Cl)cn12	-13.5%
CCOC(=O)c1cnc2c(ccc3ccccc32)c1Nc1ccccc1O	-3.5%
C=C(C)[C@@H](C)[C@H]1O[C@]23C[C@]4(CO2)C(CCC2[C@@]5(C)CC[C@H](O[C@@H]6OC[C@H](O)[C@H](O[C@@H]7O[C@H](CO)[C@@H](O)[C@H](O)[C@H]7O)[C@H]6O[C@@H]6O[C@@H](CO)[C@H](O)[C@H]6O)C(C)(C)C5CC[C@]24C)C3[C@@](C)(O)[C@@H]1OC(C)=O (stereo partly drawn)	87.8%[activator][5.1 µM]
CN1CCN(c2ccc(-c3cc4c(ccn4C)c(C(=O)NCCC(N)=O)n3)cc2)CC1	i
Cc1cccc(OC2=NS(=O)(=O)c3ccccc32)c1	i

Some of the entries so far, with each value named.
canonical_smiles: COc1cccc(C2=Nn3c(nnc3-c3ccc(OC)cc3OC)SC2)c1
- nsP2pro inh: 2.0%
canonical_smiles: CC1=C(C(=O)OC2CCCC2)C(c2ccc(F)cc2F)CC(=O)N1 (stereo not drawn)
- nsP2pro inh: -7.0%
canonical_smiles: COCC(=O)N[C@@H]1CN(C2CCOCC2)CC[C@@H]1CO
- nsP2pro inh: -1.6%

(further entries)
SMILES	nsP2pro inh
N#Cc1ccccc1NC(=O)Cn1cnc2onc(-c3cccc(F)c3)c2c1=O	-8.5%
O=S1(=O)N=C(Oc2cccc(-c3ccccc3)c2)c2ccccc21	4.4%
Cc1cccc2nc(-c3ccc(N(C)C)cc3)c(Nc3ccc4c(c3)OCO4)n12	-13.1%
COc1ccc(-c2nc(C)c(CCNS(=O)(=O)c3cc(Cl)ccc3Cl)s2)cc1	-0.5%
CN(C)CCNC(=O)c1cccn2c(=O)c3cc4ccccc4cc3nc12	?
CC1CCN(C(=O)Cn2cc(SCc3cccc(F)c3)c3ccccc32)CC1	-39.8%
COc1cc(C)ccc1OCCSc1nc2ccc(NC(=O)c3ccc4c(c3)OCO4)cc2s1	-27.4%
COc1ccc(N(Cc2cccs2)C(=O)c2ccc(OCC(C)C)cc2)cc1	-24.3%
Fc1ccc(Nc2nc(-c3ccncc3F)nc3ccccc23)cc1F	1.5%
C[C@]1(CO)[C@H]2Cc3sc(-c4ccsc4)nc3[C@@H](CC(=O)NCc3ccco3)[C@]2(C)CC[C@H]1O	?
Cc1ccc(-n2nnnc2SCC(=O)NCCc2ccccc2)cc1C	-9.5%
CCCCCCC(=O)Nc1ccc2nc3c(=O)n(C)c(=O)n(C)c3nc2c1C	-23.8%
Cc1cc(C)c(Cn2c3ccccc3c3cnn(CC(=O)NC4CCC(C)CC4)c(=O)c32)c(C)c1 (stereo not drawn)	-19.7%
CCOC(=O)c1c(NC(=O)CSc2nc(-c3ccc(OC)cc3)cc(C(F)(F)F)n2)sc(C)c1C	?
Cc1cccc(-n2cnc3cc(C(=O)N4CCOCC4)ccc32)c1	-5.4%
COc1cc(O)cc(OC2OC(CO)C(O)C(O)C2O)c1 (stereo not drawn)	79.7%[activator]
CCCN1CCN(c2ncnc3sc(C(=O)Nc4ccc(N(CC)CC)cc4C)c(C)c23)CC1	-0.9%
Cc1c(C(=O)N(C)Cc2cc(-c3cccnc3)no2)oc2c(F)cccc12	i
Clc1ccc(-c2cnc3n2C[C@H](CNC2CCCC2)OC3)cc1	i
O=C([C@@H]1C[C@H](F)CN1C(=O)CCCc1ccccc1)N1CCCCC1	-4.2%
C=C[C@@H]1[C@H](O[C@@H]2O[C@H](CO)[C@@H](O)[C@H](O)[C@H]2O)OC=C(C(=O)O)[C@H]1CCOC(=O)/C=C/c1ccc(O)c(O)c1	?
CC(C(O)c1ccccc1)N(C)CCOC(c1ccccc1)c1ccccc1 (stereo not drawn)	3.9%
COCC(=O)N1CC2(CCCCC2)CC1COc1ccc(OC)cc1 (stereo not drawn)	i
Cc1ccccc1C(=O)N[C@H]1[C@H](O)[C@H](O)C[C@@H]1c1ccc(N2CCOCC2)nc1	i
Nc1ncnc2c1c(I)cn2C1OC(CO)C(O)C1O (stereo not drawn)	-20.1%
Cc1cnc(Nc2ccc(F)cc2Cl)nc1-c1c[nH]c(C(=O)N[C@H](CO)c2cccc(Cl)c2)c1	-19.3%
CC1(C)CC[C@]2(C(=O)O)CC[C@]3(C)C(=CCC4[C@@]5(C)C[C@@H](O)[C@H](O)C(CO)(CO)C5CC[C@]43C)C2[C@@H]1O (stereo partly drawn)	45.5%[10 µM]
Cc1nccn1CCC(C(N)=O)(c1ccccc1)c1ccccc1	10.7%
COc1ccc(N2CCN(CCCNC(=O)c3nnc(Cc4ccc(F)cc4)o3)CC2)cc1	-6.0%
N#Cc1ccc(C(=O)N2CCOC[C@H](Oc3ccc(C(F)(F)F)cc3)C2)cc1	i
c1nc(NCCC2CCCO2)c2cc(-c3ccc4c(c3)OCO4)ccc2n1 (stereo not drawn)	i
O=C(c1ccc(F)cc1)N1CCC(OCCOc2cccnc2)CC1	-9.6%
Cc1cccc(NS(=O)(=O)c2ccc3c(c2)[C@H]2C=CC[C@H]2[C@@H](c2ccc(F)cc2)N3)c1	-22.8%
CCCn1c(C)nc2c(NC3CCN(Cc4ccccc4)CC3)nc(C)nc21	0.2%
CCCCC(CC)COC(=O)/C=C/c1ccc(OC)cc1 (stereo not drawn)	-17.6%
O=C(Nc1cccc(Cc2ccccc2)c1)c1ccc(-c2cccc([N+](=O)[O-])c2)o1	4.5%
CC(C)Oc1ccc(CNC(=O)c2ccc(CS(=O)Cc3ccccc3Cl)o2)cc1 (stereo not drawn)	-14.8%
COc1cccc(C(=O)Nc2c(C(=O)N3CCN(c4ccc(F)cc4)CC3)oc3ccccc23)c1	-22.1%
O=C(Nc1ccc(Cl)c(Cl)c1)Nc1nc(-c2ccncc2)cs1	-2.2%
Cc1ccc2c(c1)sc1nc(=O)n(-c3ccc(Cl)cc3)c(=O)n12	-22.7%
CCC(=O)N1CCc2cc(S(=O)(=O)NC(Cc3ccccc3)C(=O)NCc3ccc(C)cc3)ccc21 (stereo not drawn)	-26.4%
COc1ccc(NC(=O)C2CCCN2S(=O)(=O)c2cccc3cccnc23)cc1OC (stereo not drawn)	-13.5%
O=C(NCCc1ccc(Cl)cc1)C1(c2cccs2)CCOCC1	-11.8%
CC1=C2C(=O)C=C(CO)C2C2OC(=O)C(CS(=O)(=O)O)C2C(OC(=O)Cc2ccc(O)cc2)C1 (stereo not drawn)	38.0%[activator][10 µM]
OCc1cn(Cc2ccc(O)c3ncccc23)cn1	i
Nc1cccc2c1CN([C@H]1CCC(=O)NC1=O)C2=O	-11.5%
COc1ccc(OC)c(NC(=O)CCn2cnnn2)c1	-8.8%
Cc1ccccc1OCCn1c(CCNC(=O)C2CCCCC2)nc2ccccc21	-7.7%
